TDP1 cell CPT = DT40-hTDP1 cell growth loss with CPT; Potency, µM (highest dose often 46.2 µM), for inactives: at the highest dose activity change, negative = growth inhibition, actives largely listed as inhibitors; actives 12% (n = 420,000); chicken DT40 Tdp1-/-;hTDP1 cells + 20 nM CPT, ATP luminescence, 48 h; also: nearly all actives have a fitted effect of over 55% in size
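Cell growth measured by CellTiter-Glo luminescence after a minimum 48 h, 37 C compound exposure with 20 nM CPT in Tdp1-knockout DT40 cells stably expressing hTDP1, seeded 400/well; qHTS titration format.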
N370S GC mod = inhibits or activates N370S mutant glucocerebrosidase | N370S GC spleen homogenate, 4MU-glucoside fluorescence | Potency, µM (series often up to 59.4 µM), inactives show top-dose activity change, negative = inhibition, hits mostly inhibitors | actives 0.092% (n = 330,000) | AID 2101;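 also: 0% = full enzyme activity and -100% = no enzyme basal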
An asterisk follows results filed as active; ? = inconclusive; / = not tested or not shown; [ ] = remark or other dose. Calls follow the shape of the dose curve; as a rule, active = well fitted curve in the direction sought with a large enough effect; inconclusive = small, poorly fitted or top-dose-only effect, or another doubt; inactive = no such curve, though single readings can be large; an effect the other way counts as inactive or inconclusive. Unless noted, % is scaled to controls: 0 for no effect and ±100 for the full control effect; potency is read from the fitted curve at half-maximal effect.

SMILES | TDP1 cell CPT | N370S GC mod
CCOC(=O)N1CCN(C(=O)CN(C)S(=O)(=O)c2ccc(OC)c(OC)c2)CC1 | ? | -2%
COCC(C)n1c(SCc2nc(N)nc(Nc3ccccc3C)n2)nc2ccccc2c1=O (stereo not given) | 16µM* | 15%
Nc1ccc(C(=O)Nc2ccc3nc(-c4ccncc4)[nH]c3c2)cc1 | ? | -8%
CCOc1cc(CNCCc2ccccc2)ccc1OCC(=O)NC(C)(C)C | 18µM* | 9%
CCn1nnnc1NC(=O)c1cc(Cl)c(OC)c(Cl)c1 | -17% | 3%
O=C(CCc1ccccc1)NC(=S)NCc1ccco1 | 12% | 12%
CCOC(=O)c1ccc(NC(=O)Cn2cnc3cc(C)c(C)cc32)cc1 | 1.2µM* | -4%
CCOC(=O)N1CCC(N2Cc3cccc(C(=O)Nc4cc(F)ccc4F)c3C2=O)CC1 | ? | 5%
COc1ccc(/C=N/NC(=O)C(N)=O)c(OC)c1OC | 2% | 1%
CCN(CC)S(=O)(=O)c1ccc2oc(C(=O)Nc3ccc(OC)cc3OC)c(C)c2c1 | 18µM* | -4%
CCOC(=O)CSc1nnc(-c2ccc3ncccc3c2)n1C | 0% | 3%
CCN1C(Nc2ccccc2)=NC[C@@H]1C | 10% | -13%
COc1ccc(OC)c(S(=O)(=O)N2CCCC(C(=O)NCCN3CCOCC3)C2)c1 (stereo not given) | -4% | -7%
CCOC(=O)C1CCN(C(=O)Cn2nc(C)n3c(cc4cc(F)ccc43)c2=O)CC1 | ? | -1%
CCC(=O)c1cn(CC(=O)Nc2cc(C)ccc2C)c2ccccc12 | -2% | -7%
COc1ccc(N=C2NN=C(c3ccc4c(c3)OCCO4)CS2)cc1 | 21µM* | 15%
CCn1c(COC(=O)CNC(=O)c2ccccc2)nc2cc(S(=O)(=O)N(C)C)ccc21 | -20% | 2%
Cc1ccccc1NC(=O)CCC(=O)OCC(=O)c1ccc(-c2ccccc2)cc1 | ? | -4%
CCOC(=O)N1CCN(C(=S)Nc2ccccc2C(C)C)CC1 | 29% | -2%
O=C(Nc1nc2c(F)cc(F)cc2s1)c1ccccn1 | 0.65µM* | -3%
CCOc1ccccc1C(=O)NCC(=O)NCCCc1ccccc1 | 6% | -8%
CCOc1ccc(NC(=S)NCc2ccco2)cc1 | 3% | 4%
CN1CCN(c2ccccc2NC(=O)c2ccc([N+](=O)[O-])o2)CC1 | 7.3µM* | -1%
O=C(CSc1nnnn1-c1ccc(F)cc1)Nc1nc2ccccc2s1 | -7% | 1%
O=C(NCC1CCCO1)C1CCCN1C(=O)Nc1ccccc1[N+](=O)[O-] (stereo not given) | -2% | -13%
New compounds follow:
SMILES | TDP1 cell CPT | N370S GC mod
CC(NC(=O)CCOc1ccccc1)c1ccccc1 (stereo not given) | 13% | /
Cc1cccc(N/C(N)=N/c2nc(C)c(Cc3ccccc3)c(=O)[nH]2)c1 | ? | 0%
COc1ccc(C(=O)Nc2cc(OC)c(Cl)cc2Cl)cc1 | 3% | 1%
O=C(CC1C(=O)NCCN1Cc1c(F)cccc1Cl)NCCC1=CCCCC1 (stereo not given) | ? | -24%
O=C(CN1C(=O)c2ccccc2S1(=O)=O)NCc1ccccc1 | -2% | -1%
O=c1[nH]cnc2c1ncn2[C@@H]1C[C@@H](O)[C@H](CO)O1 | ? | -11%
O=[N+]([O-])c1cc(C2Nc3cccc4cccc(c34)N2)ccc1Cl | -11% | 1%
CCc1ncc(CN2CCCC(C(=O)Nc3cccc(-c4ccc(F)cc4)c3)C2)cn1 (stereo not given) | 23µM* | -16%
O=C(OCc1nnc(-c2ccc(Br)cc2)o1)c1cncc(Br)c1 | 2% | 8%
O=C(O)c1ccc(NC(=O)c2ccc(COc3ccccc3)o2)cc1 | -18% | -1%
CC(C)C(OC(=O)c1cc2occc2n1C)C(=O)NCc1ccc2c(c1)OCO2 (stereo not given) | -19% | 9%
CCc1ccnc(NC(=O)NS(=O)(=O)c2ccc(C)cc2)c1 | -2% | -3%
COC(=O)c1sccc1NC(=O)c1cccnc1 | -17% | 4%
O=C(NC1=NCCS1)C1CCCCC1 | -20% | -2%
C=CCn1c(-c2ccc([N+](=O)[O-])cc2)n[nH]c1=S | -8% | -2%
N#CCC(=N)N1CCN(c2ccccc2Cl)CC1 | 11% | -1%
COc1ccccc1NC(=O)Cc1csc(NC(=O)c2ccccc2)n1 | ? | 15%
COc1ccc(CC(=O)Nc2cccc(-c3ccc4nnc(C)n4n3)c2)cc1OC | -25% | -8%
COc1ccc(OC)c(NC(=O)NCCCCc2ccccc2)c1 | ? | -7%
Cc1noc(C(=O)Nc2cccnc2Cl)c1Cl | 0% | 4%
O=C(CCCOc1ccc(Cl)cc1Cl)NCc1ccncc1 | 8% | 9%
CN(CC(=O)O)c1ccc(C(F)(F)F)cc1[N+](=O)[O-] | 12% | 2%
COc1ccc(N2CC(C(=O)OCC(=O)c3ccccc3)CC2=O)cc1 (stereo not given) | 7% | -21%
Cc1ccc(N(C)C(=O)CCNC(=O)Cn2cnc3ccccc3c2=O)cc1C | -6% | 1%
CCOc1ccc(NS(=O)(=O)c2ccc(C(=O)NCCCN3CCCC3=O)cc2)cc1 | ? | 5%

Complete entries as entered above.
O=C(OCc1nnc(-c2ccc(Br)cc2)o1)c1cncc(Br)c1 in the list: TDP1 cell CPT = 2%; N370S GC mod = 8%
COc1ccc(C(=O)Nc2cc(OC)c(Cl)cc2Cl)cc1 in the list: TDP1 cell CPT = 3%; N370S GC mod = 1%
O=C(CN1C(=O)c2ccccc2S1(=O)=O)NCc1ccccc1 in the list: TDP1 cell CPT = -2%; N370S GC mod = -1%

Carrying on.
SMILES | TDP1 cell CPT | N370S GC mod
Cc1cc(C(=O)Nc2sc3c(c2C#N)CCC(C)C3)no1 (stereo not given) | ? | 4%
N[C@@H](CO)c1nnc([C@H](Cc2ccc(O)cc2)NC(=O)C2CCNCC2)o1 | 8% | 12%
NS(=O)(=O)c1ccc(NC(=O)CSc2ccc3ccccc3n2)cc1 | ? | 2%
COc1ccc(N=C2SC(CC(=O)Nc3ccccc3)C(=O)N2Cc2ccccn2)cc1 (stereo not given) | 29µM* | -9%
COc1cc(C(=O)NCC(=O)OCn2nnc3ccccc3c2=O)cc(OC)c1OC | -13% | -3%
Nc1nnc(-c2ccc(Cl)c([N+](=O)[O-])c2)s1 | -22% | -1%
CC(Oc1cccc(Cl)c1)C(=O)Nc1cc(=O)n(C)c(=O)n1C (stereo not given) | ? | 0%
C/C(=N\NC(=O)c1c[nH]c2ccccc12)c1ccc(C)o1 | ? | -4%
O=C(c1ccc2c(c1)OCO2)N(CC1CCCO1)C1(C(=O)NC2CCCC2)CCCCC1 (stereo not given) | -28% | 1%
Cc1cc(C(=O)OCC(=O)Nc2cc(Cl)ccc2C)c(C)o1 | -25% | /
O=C(N/N=C/C=C/c1ccco1)/C(=C/c1ccccc1)NC(=O)c1ccccc1 | ? | 4%
CC(C)(C)C(=O)Nc1ccc(-c2nnc3n2CCCCC3)cc1 | -3% | -1%
Clc1cccc(N2CCN(Cc3nnc(-c4ccccc4)o3)CC2)c1 | -19% | -18%
Cc1ccc(-c2nnc(CSc3nncn3N)o2)cc1 | -3% | 2%
COc1ccc(C2(C(=O)O)CCCC2)cc1 | -5% | 0%
Cc1ccnc(NS(=O)(=O)c2ccc(NC(=O)CN3C(=O)CCC3=O)cc2)n1 | 4% | 2%
O=C(Nc1ccccc1Cl)c1ccc2c(c1)N(Cc1ccc(F)cc1)C(=O)CS2=O (stereo not given) | 16µM* | 7%
Cc1ccc(CCc2nnc(SCC(=O)Nc3cccc(Cl)c3)n2-c2ccccc2)o1 | ? | -2%
O=[N+]([O-])c1cc(S(=O)(=O)N2CCCC2)ccc1SCCO | -9% | 1%
CCOc1ccc(NC(=O)CN(C)C(=O)c2cn(-c3ccc(F)cc3)nc2-c2cccc(OC)c2)cc1OCC | ? | -10%
COc1cccc(/C=C2\SC(=S)NC2=O)c1OS(=O)(=O)c1ccc(NC(C)=O)cc1 | -9% | -11%
COc1cccc(OCc2nc(-c3cccc([N+](=O)[O-])c3)no2)c1 | -22% | 15%
O=C1c2ccccc2C(=O)c2cc(S(=O)(=O)Nc3ccccc3)ccc21 | 15µM* | 5%
CCn1c(SCC(=O)NC2CCCC2)nnc1C(C)NC(=O)c1ccccc1Br (stereo not given) | -11% | -7%
COc1cc(NC(=O)COC(=O)CSc2ccccc2F)c(C)cc1[N+](=O)[O-] | -1% | 5%
(cont.)
SMILES | TDP1 cell CPT | N370S GC mod
Cc1cccc(C)c1OC(=O)CN(c1ccc(Cl)cc1)S(C)(=O)=O | ? | -9%
COC(CNC(=O)c1ccc2c(c1)nc(C)n2-c1cccc(F)c1)OC | -19% | 5%
CCc1nn(CC(=O)NCCCN(C)C2CCCCC2)c(=O)c2cc3occc3n12 | -6% | 5%
O=C(OCC(=O)N1CCOCC1)c1cccc(F)c1 | 4% | -1%
O=C(Nc1ccc(Cl)c(Cl)c1)C1=Cc2ccccc2OC1 | ? | 15%
CC12CCC(C(=O)Nc3ccc(Cl)cc3)([C@H](Br)C1=O)C2(C)C (stereo not given in full) | -15% | -24%
CC(=O)C1=C(O)C(=O)N(c2ccccn2)C1c1ccc(C)cc1 (stereo not given) | -3% | -16%
Cc1cc(C)c(S(=O)(=O)N2CCN(S(=O)(=O)N3CCCCCC3)CC2)c(C)c1 | ? | -12%
CN(C)S(=O)(=O)c1ccc(C(=O)OCC(=O)NCc2ccco2)cc1 | 31%[activator] | -4%
COc1ccc(C2(c3ccc(OC)cc3)NC(=O)N(CC(=O)Nc3ccccc3)C2=O)cc1 | -5% | -3%
O=C(CSc1oc(-c2ccco2)nc1S(=O)(=O)c1ccc(Cl)cc1)NCC1CCCO1 (stereo not given) | -13% | 6%
CN(C)C(=O)c1cccn(Cc2cccc(C(F)(F)F)c2)c1=O | -13% | 4%
CCOc1ccc(S(=O)(=O)NC(Cc2cnc[nH]2)C(=O)O)cc1 (stereo not given) | 1% | -2%
Cc1cc(=O)[nH]c(N/N=C/c2ccccn2)n1 | 3.7µM* | 0%
Cc1noc(C)c1C(=O)NNc1cc(Cl)ccc1Cl | 7% | 5%
Cc1ccc(CC(=O)NCCc2ccc(S(N)(=O)=O)cc2)cc1 | 2% | -2%
Cc1ccc(SCC(=O)OCC(=O)N(CC(C)C)c2c(N)n(Cc3ccccc3)c(=O)[nH]c2=O)c(C)c1 | ? | -18%
COc1ccc(NC(=O)C(c2ccccc2)c2ccccc2)cn1 | ? | -4%
O=C1c2cc(S(=O)(=O)N(CCO)CCO)ccc2-c2ccc(S(=O)(=O)N(CCO)CCO)cc21 | 1% | /
Oc1ccc2ccccc2c1CNc1ccccn1 | -8% | 4%
CCOc1ccc(NC(=S)N2CCC(NC(=O)c3ccco3)CC2)cc1 | -1% | -3%
NC1=NC2CS(=O)(=O)CC2S1 (stereo not given) | -27% | 14%
COCCNC(=O)C1CC2Cn3c(nc4cc5ccccc5cc43)C2N1C (stereo not given) | -23% | 13%
O=C(NC(=S)Nc1ncccn1)c1ccc(Cl)cc1Cl | 0% | 10%
Cc1cc(=O)n2nc(N3CCCC(C(=O)NCc4ccc(Cl)cc4)C3)sc2n1 (stereo not given) | -8% | -12%
(next part)
SMILES | TDP1 cell CPT | N370S GC mod
CC(C)(C)C(=O)NC(n1cnc2c(N3CCOCC3)ncnc21)C(Cl)(Cl)Cl (stereo not given) | -3% | 1%
CCOC(=O)c1oc2ccccc2c1NC(=O)c1ccco1 | ? | 1%
O=C(NCc1cccnc1)c1ccc2c(=O)n(CCCN3CCCC3=O)c(=S)[nH]c2c1 | -26% | 6%
NC(=O)c1ccc(NC(=O)C2CC2)cc1 | 12% | 9%
CN(CC(=O)Nc1c(Cl)cccc1Cl)C(=O)CCNS(=O)(=O)c1ccccc1C(F)(F)F | ? | -4%
COc1nc2ccc(C)cc2cc1-c1noc(-c2ccccc2)n1 | -24% | 15%
O=C(Cn1ncn2cccc2c1=O)N1CCCCC1 | 5% | -3%
O=C(CCNC(=O)c1ccco1)Nc1ccc(Cl)cc1 | -25% | -2%
N#Cc1ccc(C(=O)NC2=NCCS2)cc1 | 2% | -5%
NS(=O)(=O)c1ccc(Nc2ncccc2[N+](=O)[O-])cc1 | -23% | 10%
Cc1cc(C)n(-c2ccc(OCC(=O)O)nn2)n1 | -11% | 5%
COc1ccc(C)cc1NC(=O)CSc1nc2ccccc2nc1N1CCCC1 | ? | -6%
COc1cccc(C(=O)OCC(=O)c2c[nH]c3ccccc23)c1O | -14% | 10%
Cc1ccc(S(=O)(=O)Nc2cnn(-c3ccccc3)c(=O)c2Cl)cc1 | 6% | 9%
COc1ccccc1-c1noc(CCC(=O)Nc2ccccc2Cl)n1 | -10% | 5%
CSc1nsc(/C=C/Nc2ccc(C)c(C)c2)c1C#N | ? | 14%
Cc1cccc(OCC(=O)OCC(=O)N2CCCc3ccccc32)c1C | -15% | /

A different layout for six compounds above.
Molecule,TDP1 cell CPT,N370S GC mod
O=C(Cn1ncn2cccc2c1=O)N1CCCCC1,5%,-3%
O=C(CCNC(=O)c1ccco1)Nc1ccc(Cl)cc1,-25%,-2%
N#Cc1ccc(C(=O)NC2=NCCS2)cc1,2%,-5%
NS(=O)(=O)c1ccc(Nc2ncccc2[N+](=O)[O-])cc1,-23%,10%
Cc1cc(C)n(-c2ccc(OCC(=O)O)nn2)n1,-11%,5%
COc1ccc(C)cc1NC(=O)CSc1nc2ccccc2nc1N1CCCC1,?,-6%

Not all compounds are listed, and most or all hits are left out here.
